SmPrx2 inh – blocks S. mansoni peroxiredoxin 2 enzymatic activity; S. mansoni Prx2 activity coupled to TGR/GSH (TGR is thioredoxin glutathione reductase), NADPH fluorescence loss, qHTS; some inactives read as strong as hits; Potency, µM; 65,000 tested, 0.07% active; active means full or partial inhibition curve with a strong effect at the top dose; inconclusive means weaker partial or single-point curve; inactive means no accepted curve; also: series up to 57 µM; many of its hits are not listed in these tables
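qHTS, coupled TGR/Prx2 format; 15 min compound preincubation at RT; reaction started with H2O2 (2.5 mM aliquot); kinetic NADPH fluorescence decrease, ex 365/em 450 nm.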
Anthrax LT inh – blocks cellular internalization of anthrax lethal toxin; Cells, anthrax lethal toxin internalization, FRET ratio (460/530); Potency, µM (top dose mostly 40 µM), inactives show at the highest dose activity change, negative = inhibition, most hits filed as inhibitors; 70,000 tested, 0.67% active; AID 912; active = well fitted falling ratio curve with the 530 nm signal flat; inconclusive = other ratio curves, or a change in one channel alone; inactive = flat curves in the ratio and both channels; the % refers to the ratio; also: % is scaled to controls: 0 for no effect and ±100 for the full control effect; nearly all actives have a fitted effect of over 50% in size; tested in ME-180 cells; beta-lactamase reporter
An asterisk follows results filed as active; u = inconclusive; x = no result given; & = joins results of further samples; [ ] = remark or other dose. Potency is read from the fitted curve at half-maximal effect. The list is partial; the hit share may differ from the screen's.

Sample of the layout, two compounds:
Compound	SmPrx2 inh	Anthrax LT inh
Cc1cc(C(=O)CN2C(=O)c3ccccc3C2=O)c(C)n1Cc1cccs1	>57	16%
Cc1cc(C)cc(N(CCC#N)C(=O)CSc2nc3nc(C)cc(C)n3n2)c1	>57	8%

The list itself (from the top)
Compound	SmPrx2 inh	Anthrax LT inh
Cc1cc(C(=O)CN2C(=O)c3ccccc3C2=O)c(C)n1Cc1cccs1	>57	16%
Cc1cc(C)cc(N(CCC#N)C(=O)CSc2nc3nc(C)cc(C)n3n2)c1	>57	8%
Cc1ccc(N=C2SCCCN2C(=O)c2ccco2)cc1Cl	>57	u
FC(F)Oc1ccccc1C1CC(c2ccc(Br)s2)Nc2ncnn21 (configuration not stated)	>57	-16%
Cc1cccc(NC(=O)CSc2nnc(-c3ccccc3)n2N)c1C	>57	x
O=C(NCc1ccco1)c1cccnc1-c1nc2ccccc2s1	>57	17%
CCSc1nnc(NC(=O)CCc2ccccc2)s1	x	-17%
CCCS(=O)(=O)Nc1cc(C(F)(F)F)ccc1OCCOC	>57	-25%
COc1ccc(C)c2sc(N3CCCC3)nc12	>57	6%
CC1CCN(C(=O)Cn2nc(C(F)(F)F)c3c2CCCC3)CC1	>57	u
COc1ccccc1CN1CC[C@@]2(CCCN(C(=O)c3cc(C(F)(F)F)cc(C(F)(F)F)c3)C2)C1	>57	-2%
CC1CN(c2ccc(Oc3ccccc3)cc2)c2nc3c(c(=O)[nH]c(=O)n3C)n2C1 (configuration not stated)	>57	-9%
Cc1ccc(C)n1-n1cnc2scc(-c3cccs3)c2c1=O	>57	u
CCc1ccccc1NC(=O)Cn1nnc(-c2cccs2)n1	>57	-16%
N#Cc1c(NC(NC(=O)c2ccco2)C(=O)c2ccccc2)sc2c1CCCC2 (configuration not stated)	x	u
COc1ccc(N2CCN(C(=O)CCNS(=O)(=O)c3ccc4c(c3)CCC(=O)N4)CC2)cc1	>57	u
C=CCn1c(SCC(=O)Nc2ccc(C)cc2C)nnc1-c1cccnc1	>57	8%
CCn1c(C(=O)N2CCCC(C(=O)NCCc3ccc(C)cc3)C2)cc2sccc21 (configuration not stated)	>57	-11%
O=c1c(CCc2ccccc2)nc2cnc(N3CCNCC3)nc2n1-c1ccccc1	>57	u
CC(=O)OCC(=O)[C@@H]1CC[C@H]2[C@H]3CC[C@H]4C[C@@H](O)CC[C@]4(C)[C@@H]3C(=O)C[C@@]12C	>57	-1%[3.58 µM]
COCC(=O)NC1CCN(S(=O)(=O)c2ccc(C(=O)O)cc2)CC1	>57	-7%
COc1ccc(C(C)N2CC34C=CC(O3)C(C(=O)O)C4C2=O)cc1 (configuration not stated)	>57	13%
COc1ccc(CCNc2nc(-c3sc(N)nc3C)cs2)cc1OC	>57	u
N#CCCN1CCN(C(=S)c2ccc(-c3cc(Cl)ccc3Cl)o2)CC1	>57	-18%
O=C(CN(CCc1ccccc1)C(=O)CNS(=O)(=O)c1ccc(F)cc1)NCc1ccco1	>57	-7%
CC1CCN(CC(O)COC2CCC(C(C)(C)C)CC2)CC1 (configuration not stated)	>57	u
O=C(NCC1CCCO1)c1ccc(NC(=O)C2CCCCC2C(=O)O)cc1 (configuration not stated)	>57	5%
CCN(CC)C(=O)Sc1cccc2cccnc12	>57	7%
CN(C)c1ccc(C(=C2C=CC(=[N+](C)C)C=C2)c2ccc(N(C)C)cc2)cc1	x	u
FC(F)(F)c1ccccc1-c1cncnc1Nc1ccccc1	>57	-10%
Cc1cccc(C)c1NC(=O)CSc1nnc([C@@H]2CCCN2C(=O)OC(C)(C)C)o1	>57	x
CC1(C)CC(=NO)CC(C)(C)N1	>57	-11%
O=C(Cn1cnc2c(cnn2-c2ccccc2)c1=O)N1CCN(c2ccc(F)cc2)CC1	>57	12%
CCCCOC(=O)C1=C(C)NC2=C(C(=O)CCC2)C1c1cc(OC)ccc1OC (configuration not stated)	>57	u
CC1CCc2nn(CC(=O)NCCCN3CCCCC3)cc2C1 (configuration not stated)	>57	-13%
CCc1nnc(NC(=O)COC(=O)CN2C(=O)c3ccccc3C2=O)s1	>57	9%
CS(=O)(=O)N(CCc1ccccc1)CC(=O)NCc1ccco1	>57	-2%
CC(=O)N1C2(C=CC1(C)C(=O)NCCN1CCOCC1)CCCCC2 (configuration not stated)	x	1%
O=C(CCn1c(=O)sc2ccccc21)NC1=NCCS1	>57	u
O=C(Nc1ccc2c(c1)OCO2)[C@@H]1[C@@H]2C(=O)N(C3CCCCC3)C(=O)[C@@H]2C2c3ccccc3C=CN21 (some centres not stated)	>57	u
CC(C)COC(=O)N1CC(O)CC1C(=O)O (configuration not stated)	>57	-15%
N=c1c(S(=O)(=O)c2ccccc2)cc2c(=O)n3ccccc3nc2n1CCN1CCOCC1	>57	2%
CCCN1CC=C2C(C#N)=C(N)C(C#N)(C#N)C(c3cccc(OC)c3OC)C2C1 (configuration not stated)	>57	u
COc1ccc(N2CCN(CCCNC(=O)C3(S(=O)(=O)c4ccc(Cl)cc4)CC3)CC2)cc1	>57	-3%
Cc1nn(Cc2ccccc2)c(C)c1C(=O)Nc1ccc(N2CCOCC2)cc1	>57	2%
Cc1ccc(-c2nnn(Cc3nc(N)nc(N4CCOCC4)n3)n2)cc1	>57	-17%
COc1cc(OC)c(-c2nn3c(-c4cccnc4)nnc3s2)cc1OC	>57	-8%
COc1ccc(-c2noc(CCC(=O)NCc3cc(Br)ccc3OC)n2)cc1	>57	u
c1cnc(NC2C3CC4CC(C3)CC2C4)nc1 (configuration not stated)	>57	-8%
COc1ccc(COC(=O)N/N=C2/C[C@@H](O)[C@@H](O)[C@@H]3[C@@H]4C(=O)N([C@@H](C)c5ccccc5)C(=O)[C@H]4CC[C@@H]23)cc1	x	-1%[8 µM]

More records follow:
Compound	SmPrx2 inh	Anthrax LT inh
Cc1ccccc1Cn1ccc(NC(=O)c2cc3nc(-c4ccco4)cc(C(F)(F)F)n3n2)n1	>57	-1%
Cc1cc(C)c(S(=O)(=O)NCc2cn3c(C)csc3n2)cc1C	u	-2%
O=c1cc(CSc2nnnn2-c2ccccc2)nc2scc(-c3ccccc3)n12	>57	-20%
Cc1noc(C)c1C(=O)N1CCC2(CCN(C(=O)NC(C)C)CC2)CC1	>57	5%
O/N=C1\CCCc2nnc3c(c21)CCCC3	>57	-1%
CS(=O)(=O)NCc1ccc(C(=O)NC2CCCCC2)cc1	>57	5%
COCC(=O)N1CCC(n2nnc3cc(F)ccc32)CC1	>57	0%
CCC(C(=O)O)n1nnc(-c2ccc(-c3ccc(OC)cc3)cc2)n1 (configuration not stated)	>57	-8%
COC(=O)c1cc(OC)c(OC)cc1N=CC1=C(O)CC(C)(C)CC1=O	x	5%
CCN(CC)CCCn1c(-c2ccccc2)nc2c(N3CCOCC3)nc(C)nc21	x	13%
COC(=O)[C@@]1(Cc2ccccc2)[C@H]2c3cc(C(=O)N4CCCC4)n(CCO)c3C[C@H]2CN1C(=O)c1ccccc1	>57	u
COc1ccc(OC)c(C2C(C(=O)c3cccs3)=C(O)C(=O)N2c2cc(C)on2)c1 (configuration not stated)	>57	1%
Clc1ncn(C23CC4CC(CC(C4)C2)C3)n1	>57	-12%
CCCCC/C=C\C/C=C\CCCCCCCC(=O)O	x	-5%
Cc1nc(NC2=NCN(Cc3ccc4c(c3)OCO4)CN2)nc2ccccc12	>57	-11%
COc1ccc(N2CCN(C(=O)CSc3nnc(CNc4ccccc4)o3)CC2)cc1	>57	-7%
O=C(c1ccc(S(=O)(=O)N2CCCCC2)cc1)N1CCN(Cc2ccc3c(c2)OCO3)CC1	x	u
CCC(=O)N(Cc1ccc2c(c1)OCO2)Cc1cc2cc(OC)ccc2[nH]c1=O	>57	-11%
COc1ccc(C2C(C(=O)O)CC(=O)N2c2ccc(OC)cc2)cc1 (configuration not stated)	>57	12%
COCCN1Cc2cccc(C(=O)Nc3cc(OC)ccc3OC)c2C1=O	>57	-4%
Cc1cccc(OCC(=O)Nc2cccc(O)c2)c1	x	-1%
CC(C)CC(c1nnnn1C1CCCCC1)N1CCN(c2ncccn2)CC1 (configuration not stated)	>57	-14%
Cc1cc(NC(=O)CSc2nc3c([nH]c4ccccc43)c(=O)n2-c2cccc(C(F)(F)F)c2)no1	>57	-23%
O=C(Cn1c(C(F)(F)F)nc2ccccc21)NCCN1CCCC1	>57	-8%
COc1ccc(-c2c(C)nn3c(N4CCN(Cc5ccccc5)CC4)cc(C)nc23)cc1OC	>57	u

Entries of single compounds from above. Values in the order: SmPrx2 inh	Anthrax LT inh
COC(=O)c1cc(OC)c(OC)cc1N=CC1=C(O)CC(C)(C)CC1=O is listed as x	5%
CCC(=O)N(Cc1ccc2c(c1)OCO2)Cc1cc2cc(OC)ccc2[nH]c1=O is listed as >57	-11%
COC(=O)[C@@]1(Cc2ccccc2)[C@H]2c3cc(C(=O)N4CCCC4)n(CCO)c3C[C@H]2CN1C(=O)c1ccccc1 is listed as >57	u

Following part
Compound	SmPrx2 inh	Anthrax LT inh
COc1ccc(S(=O)(=O)N[C@H](C(=O)N2CC[C@@]3(O)CCCC[C@H]3C2)c2ccccc2)cc1	>57	-12%
Fc1ccc(NCc2nnc(SCc3nnc(-c4ccccc4)o3)n2Cc2ccccc2)cc1	>57	-14%
CC(CC(=O)NCc1ccccc1)C1CCCO1 (configuration not stated)	>57	-4%
CC(=O)Nc1ccc(S(=O)(=O)Nc2ccc(NC(=O)c3ccco3)cc2)cc1	>57	6%
CCOC(=O)C1=C(N)OC2=C(C(=O)CCC2)C1c1ccccc1OCC (configuration not stated)	>57	-9%
CCC1(c2ccccc2)NC(=O)N(CC(=O)Nc2ccc3c(c2)OCO3)C1=O (configuration not stated)	>57	-10%
COC(=O)CS(=O)(=O)c1nnc([C@H](Cc2ccccc2)NC(=O)OC(C)(C)C)o1	u	x
CCOC(=O)c1ccc(NC(=O)CSc2nccn2C)cc1	>57	-10%
OC(CN1CCOCC1)CN(c1ccccc1)c1ccccc1 (configuration not stated)	>57	-12%
CC1CC2(O)c3nonc3CCC2N1O (configuration not stated)	>57	-2%
OC1CCCN(Cc2ccc3c(c2)Cc2ccccc2-3)C1 (configuration not stated)	>57	-4%
CCOc1ccc(S(=O)(=O)N2CCCCC2)c2ccccc12	x	u
O=C(C1CCN(S(=O)(=O)c2cccnc2)CC1)N1CCN(c2ccc(Cl)cc2)CC1	>57	-5%
O=C(CN1C(=O)NC2(CCOc3ccccc32)C1=O)Nc1ccc2c(c1)OCCO2 (configuration not stated)	>57	u
Cc1nn(-c2ccccc2)c(C)c1NC(=O)c1ccc(S(=O)(=O)N2CCCC2)cc1	>57	5%
CCc1ccc(OCc2nnc(SCC(=O)NCc3ccco3)o2)cc1	>57	-8%
COCCNC(=O)CN1CCC(NC(=O)Nc2ccc(C(F)(F)F)cc2)CC1	>57	-4%
CCN1CCN(C(=O)c2nn(-c3ccc(OC)cc3)c(=O)c3c2c2ccccc2n3C)CC1	>57	-3%
CCOc1ccc(C2C(C#N)=C(N)SC(N)=C2C#N)cc1OCC	>57	1%
C/C(=C\C#N)n1nc(C)cc1N	>57	4%
O=C(CN1CCN(C(c2ccccc2)c2ccccc2)CC1)N1CCOCC1	>57	15%
Cc1noc(C)c1S(=O)(=O)NC1CCN(Cc2ccccc2)CC1	>57	-12%
CNC(=O)c1nnn(Cc2ccccc2)c1NC(C)=O	>57	10%
CN1CC=C2C(C#N)=C(N)C(C#N)(C#N)C(Cc3ccccc3)C2C1 (configuration not stated)	>57	u
COc1ccc(-n2c(=O)[nH]c3ccccc3c2=O)c(OC)c1	>57	5%
N[C@@H](CSc1nc2ccccn2c1[N+](=O)[O-])C(=O)O	>57	-9%[8 µM]
CCOC(=O)c1[nH]c2ccc(OC)cc2c1NC(=O)CN1CCSCC1	>57	x
COc1ccc2c(c1)OCC1=C2CCC2(C)C(=O)CC=C12 (configuration not stated)	>57	26%
Cc1cc(-n2nnc3ccccc32)nc2ccccc12	>57	-10%
CS(=O)(=O)N(CC(=O)Nc1ccc2c(c1)OCCO2)Cc1ccc(Cl)cc1	>57	3%
Clc1ccccc1OCCCCn1ccnc1	x	2%
NCCc1c[nH]c2ccc(O)cc12	>57&>57	4%[3.58 µM]
COc1ccc(-n2c(SCCC#N)nnc2-c2cc(Cl)ccc2OC)cc1Cl	>57	u
C=CCn1c(=O)c2c(C)c(C)sc2n2c(Nc3ccc(OC)cc3)nnc12	>57	8%
CCOc1cc(/C=N/O)cc(Br)c1OC	>57	-14%
CCc1ccc2oc(-c3ccc(N)cc3)nc2c1	>57	-25%
Fc1ccc(OCc2nn3c(Cn4nnc5ccccc54)nnc3s2)cc1	>57	11%
CC(=O)NC1Sc2ccccc2N=C1c1ccccc1 (configuration not stated)	>57	-24%
CCOc1cccc(C(=O)Nc2nc(-c3ccc(S(=O)(=O)N4CCOCC4)cc3)cs2)c1	>57	u
O=C1c2ccccc2C(=O)N1C/C=C/c1ccccc1	>57	2%
COc1ccc(CNC(=O)C(C)NC(=O)c2cc3ccccc3o2)cc1 (configuration not stated)	>57	u

High-throughput results from PubChem BioAssay.
